gsp antag: antagonists of gsp mutant (McCune-Albright syndrome); gsp-mutant cells, cAMP HTRF, 30 min; control for the full effect not named in the record; Potency, µM (highest dose often 76.9 µM), for the others: at the top dose activity change, negative = inhibition, usual class: inhibitors; actives 0.4% (n = 340,000); AID 624288; active = falling curve of any shape with a large fitted effect; inconclusive = falling curve, mostly with a smaller effect; inactive = flat or rising curve; cell line not stated here;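 also: intracellular cAMP measured with PDE inhibitor Ro 20-1724 present during compound exposure; potency is read from the fitted curve at half-maximal effect; % is scaled to controls: 0 for no effect and ±100 for the full control effect; nearly all actives have a fitted effect of over 65% in size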
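HTRF cAMP measurement after 30 min RT detection following 30 min, 37C compound treatment alongside […] (added as 300 uM solution) in G418-selected cells seeded at 2000/well and grown 16–24 h.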
gsp ag: activates gsp, the McCune-Albright syndrome mutation | gsp mutant cells, cAMP HTRF, 30 min; control for the full effect not named in the record | AID 624287 | actives 0.13% (n = 340,000) | Potency, µM (highest dose often 76.9 µM), inactives show at the highest dose activation (cAMP increase), usual class: activators; active = well fitted activation curve with a large enough effect; inconclusive = small, poorly fitted or top-dose-only effect, or another doubt; inactive = no such curve, though single readings can be large or run the other way; cell line not stated here;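 also: phosphodiesterase inhibitor Ro 20-1724 added with compounds to block cAMP breakdown; potency is read from the fitted curve at half-maximal effect; nearly all actives have a fitted effect of over 60% in size; about a fifth of the inactives were tested at one dose only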
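Cells stably selected in G418 were plated at 2000/well, grown 16-24 hr, then given compounds in DMSO with the PDE inhibitor […] (300 uM solution added) for 30 min at 37C; cAMP was read by HTRF.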
Six1-Eya2 inh: inhibitors of human Six1/Eya2 interaction; Q15475+O00167; AlphaScreen GST-Six1/His-Eya2 binding, biochemical; active compounds read low; control for the full effect not named in the record; activity change, % (test concentration not listed); actives 0.56% (n = 360,000); AID 651725; in the data active = activity change below about -65%; inconclusive = about -30% to -65%; inactive = above about -30%; also: % is scaled to controls: 0 for no effect and ±100 for the full control effect
Target sequence (O00167 whole entry, looked up): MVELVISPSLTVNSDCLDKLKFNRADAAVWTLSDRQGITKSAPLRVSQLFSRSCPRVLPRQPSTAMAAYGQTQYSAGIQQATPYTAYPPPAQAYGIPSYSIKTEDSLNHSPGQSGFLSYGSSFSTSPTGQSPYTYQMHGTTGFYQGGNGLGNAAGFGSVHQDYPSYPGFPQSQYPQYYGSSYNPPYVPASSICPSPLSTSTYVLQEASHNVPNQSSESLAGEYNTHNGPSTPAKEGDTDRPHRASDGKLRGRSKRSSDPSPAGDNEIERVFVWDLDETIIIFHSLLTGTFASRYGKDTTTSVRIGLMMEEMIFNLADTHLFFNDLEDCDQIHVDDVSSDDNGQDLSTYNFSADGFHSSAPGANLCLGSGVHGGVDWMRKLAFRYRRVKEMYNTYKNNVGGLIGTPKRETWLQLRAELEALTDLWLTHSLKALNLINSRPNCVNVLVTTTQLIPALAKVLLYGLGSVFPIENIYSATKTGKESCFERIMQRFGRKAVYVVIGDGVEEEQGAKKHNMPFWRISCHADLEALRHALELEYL
Target sequence (Q15475 whole entry, looked up): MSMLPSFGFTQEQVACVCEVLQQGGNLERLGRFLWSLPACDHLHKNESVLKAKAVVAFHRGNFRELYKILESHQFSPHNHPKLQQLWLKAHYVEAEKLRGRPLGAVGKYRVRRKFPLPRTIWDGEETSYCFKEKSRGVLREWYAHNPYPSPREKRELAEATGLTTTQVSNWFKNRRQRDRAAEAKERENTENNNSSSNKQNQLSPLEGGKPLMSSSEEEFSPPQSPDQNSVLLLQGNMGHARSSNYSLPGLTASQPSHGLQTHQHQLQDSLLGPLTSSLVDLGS
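Six1/Eya2 binding was read as AlphaScreen signal after compounds were pinned into GST-Six1 plus His-tagged Eya2 (5X stock 250/500 nM) in pH 8.0 Tris/NaCl/TCEP buffer, beads added, then incubated 1 h, 37 C, dark.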
D2 agonist: agonists of human D2 dopamine receptor (beta-arrestin). P14416. DiscoveRx PathHunter D2 beta-arrestin, luminescence, 90 min; 100% = 57 uM dopamine signal. activation, % (concentration not given with the values). actives 0.084% (n = 360,000). AID 624465; in the data active = activation above about 40%; inconclusive = about 15% to 40%; inactive = below about 15%; also: compound concentration not given in the record; the text of the record calls up to 30% inactive
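Agonist mode: compounds alone added to overnight-plated D2 PathHunter cells for 90 min at 37 C, with 57 uM final dopamine (EC100) defining full response. Beta-arrestin recruitment detected by chemiluminescent reagent, read after 1 h at ambient temperature.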
CtBP-E1A blk: inhibitors of CtBP/E1A interaction | AlphaScreen GST-E1A/His-CtBP binding, 1536-well; active compounds read low; control for the full effect not named in the record | activity change, % (concentration not given with the values) | actives 0.49% (n = 340,000) | AID 651724; in the data active means activity change below about -65%; inconclusive means about -30% to -65%; inactive means above about -30%; also: % is scaled to controls: 0 for no effect and ±100 for the full control effect
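AlphaScreen with 125 nM GST-E1A and 125 nM His-CtBP (5X stocks) in Tris pH 8.0, 300 mM NaCl, BSA, Tween 20, TCEP. Compounds preincubated 2 h at 37 deg C, then glutathione donor/nickel acceptor beads added for 1 h at 37 deg C in dark.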
D2 potentiator: potentiates the human D2 dopamine receptor allosterically; DiscoveRx D2 beta-arrestin cells, luminescence, 90 min; 100% = 57 uM dopamine signal; P14416; potentiation, % (concentration not given with the values); actives 0.23% (n = 360,000); active = potentiation of 50% or more; inconclusive = 30% to 50%; inactive = 30% or less;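 also: compound concentration not given in the record; tested on top of an EC20 dose of dopamine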
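D2 cells co-treated with compound plus 50 nM dopamine (EC20) for 90 min at 37 deg C to detect potentiation. Beta-arrestin recruitment was read as enzyme-fragment luminescence after 1 h at ambient temperature. Full response was set by 57 uM dopamine.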
Numbers without * were called inactive; ? = inconclusive; nt = not tested or not shown; [ ] = another dose, or the depositor's remark.

#	compound	gsp antag	gsp ag	Six1-Eya2 inh	D2 agonist	CtBP-E1A blk	D2 potentiator
1	Cn1c(SCC(=O)c2ccccc2)nnc1C1COc2ccccc2O1 (centres undefined)	4%	-15%	7	3.1	6	0
2	Cc1ccc(Sc2c(C)nn(C(=O)C3CC3)c2C)cc1	4%	8%	37	1.2	16	-9
3	O=C(N/N=C/c1ccco1)C1CCCC1	10%	-11%	1	2.7	-15	-9
4	O=C(NCCCc1ccccc1)C1CCN(c2nnc(-n3cccc3)s2)CC1	-6%	-28%	-4	-4.2	-2	-3
5	Cc1cc(C(=O)NCc2ccc(F)cc2)n(-c2ccccc2)n1	-16%	5%	2	-4.0	9	2
6	COc1ccc(N(C(=O)c2snc(C(N)=O)c2N)C(C(=O)NCc2ccccc2)c2ccc(O)cc2)cc1OC (centres undefined)	?	14%[15.4 µM]	-1	-1.9	2	-13
7	COc1ccc(OCCCC(=O)Nc2nccs2)cc1	-25%	5%[15.4 µM]	-2	-1.6	-11	-6
8	COc1cc(-c2cc(NC(C)=O)c3ncc(-c4cc(OC)c(OC)c(OC)c4)n3c2)cc(OC)c1OC	nt	nt	-19	8.6	-26	-11
9	CC(=O)N1CCC2(CC1)CC(=O)c1cc(OCC(=O)NCc3ccc(C)cc3)ccc1O2	-7%	-13%	0	-0.8	1	-7
10	O=C(O)c1cc(-c2cccc([N+](=O)[O-])c2)nc2ccccc12	-8%	-15%[15.4 µM]	-7	-3.5	0	-3
11	O=C1C=CN2CCCC2CC1 (centres undefined)	8%	0%	-1	-2.7	4	-2
12	Cc1ccc2c(=O)n3c(nc2c1)C(Cc1ccc(O)cc1)NC(=O)c1cc2ccccc2cc1-3 (centres undefined)	nt	-74%[inhibitor]	-3	-7.3	-4	2
13	O=C(CSc1nnc(CNc2ccc(F)cc2)o1)N1CCN(C(=O)c2ccco2)CC1	-9%	-17%	2	2.6	8	0
14	COc1cc(NC(=O)COc2cccc(C)c2C)ccc1NC(=O)c1ccco1	-27%	16%[15.4 µM]	-8	-0.8	0	-7
15	O=C(Cc1ccccc1)Nc1cccc(NC(=O)c2ccccc2)c1	-5%	13%[15.4 µM]	3	4.5	3	-22
16	O=C(Nc1ccccn1)C1CCN(c2ncnc3c2nc2n3CCCCC2)CC1	2%	?	15	0.6	nt	-1
17	CCOC(=O)N(NC(=O)C(O)(CC(C)C)CC(C)C)c1ccccc1	12%	0%[15.4 µM]	5	0.3	-14	-5
18	O=C(Cn1ncc2c3ccccc3n(Cc3ccccc3F)c2c1=O)NCCCN1CCCC1=O	-17%	-1%	-3	-1.2	-15	-14
19	COCc1cc(C)c2c(N)c(C#N)sc2n1	9%	?	-7	-1.9	0	-7
20	CCCc1cc(=O)[nH]c(SCC(=O)c2[nH]c(C)c(C(=O)OCC)c2C)n1	-10%	?	6	-0.2	8	-10

Next section (two carried over from the part before).
#	compound	gsp antag	gsp ag	Six1-Eya2 inh	D2 agonist	CtBP-E1A blk	D2 potentiator
19	COCc1cc(C)c2c(N)c(C#N)sc2n1	9%	?	-7	-1.9	0	-7
20	CCCc1cc(=O)[nH]c(SCC(=O)c2[nH]c(C)c(C(=O)OCC)c2C)n1	-10%	?	6	-0.2	8	-10
21	O=C(NCc1ccc(N2CCCC2=O)cc1)Nc1cccc2ccccc12	3%	-49%[inhibitor]	5	-0.1	8	14
22	Cc1cc(OC(=O)c2cc(Cl)ccc2Cl)c([N+](=O)[O-])c(=O)[nH]1	3%	?	4	-1.0	6	-6
23	CC(C)(C)C1CCC(=NNC(=O)c2ccc(Br)o2)CC1 (centres undefined)	17%	14%[15.4 µM]	-8	-1.1	-1	-9
24	CC(Sc1ccc(Cl)cc1)C(=O)NNC(=O)c1csc(N2CCOCC2)n1 (centres undefined)	-3%	-1%[15.4 µM]	-1	2.1	12	-23
25	COc1ccc(OCCCC(=O)OCC(=O)Nc2ccc(Cl)cn2)cc1	-5%	11%[15.4 µM]	-6	1.2	1	-1
26	CC1CCN(C(=O)C(NS(=O)(=O)c2cccc3nsnc23)C(C)C)CC1 (centres undefined)	4%	?	5	1.2	-12	-8
27	O=C1CN(Cc2ccccc2)C(=NCc2ccco2)S1	11%	49%	-9	-1.8	-7	-12
28	CC(C)Nc1nnc(SCC(=O)c2c(N)n(Cc3ccccc3)c(=O)n(C)c2=O)s1	-12%	-37%	-10	1.5	4	12
29	O=S(=O)(c1cccc(NC(=S)N2CCN(c3cccc(Cl)c3)CC2)c1)C(F)F	32µM*	-3%[15.4 µM]	-14	7.2	1	-12
30	O=C(NCC(=O)N(c1cccnc1)C(C(=O)NC1CCCC1)c1ccccc1F)c1ccco1 (centres undefined)	2%	-8%[15.4 µM]	12	-1.6	0	-8
31	CC(C)C12CN(C(=O)c3ccccc3[N+](=O)[O-])CC(C(C)C)(CN(C(=O)c3ccccc3[N+](=O)[O-])C1)C2=O	-4%	2%[15.4 µM]	-3	1.4	-2	2
32	N#Cc1c(SCC(=O)O)nc(N2CCCCC2)c2c1CCCC2	-18%	?	0	-3.2	-3	2
33	CCOC(=O)C1[C@H]2C(=O)N(C(C)c3ccc(OC)cc3)C[C@]23C=C[C@H]1O3 (some centres undefined)	1%	-9%	3	2.9	16	2
34	CCOC(=O)C1(C)CCCCCN1C(=O)c1csnn1 (centres undefined)	nt	nt	15	2.0	-17	-8
35	O=C(CSc1nnc(C2CCCCC2)n1Cc1ccccc1)NCc1ccco1	-13%	0%	-3	-2.0	-4	-6
36	CCSc1nnc(NC(=O)Cn2cnc3ccccc3c2=O)s1	0%	11%	4	-3.3	nt	-12
37	Cc1cc(C)n(/N=C/c2cccs2)c(=O)c1C#N	2%	0%	5	-0.9	0	0
38	Cc1nc(CC(=O)Nc2nc(-c3ccccc3)cs2)cs1	-21%	1%	-2	-0.2	-1	-1
39	O=C(CN1CCOCC1)N1CCc2ccccc2C(c2ccccc2)C1 (centres undefined)	0%	-5%	-3	-2.0	-1	-7
40	CCc1ccc(Oc2nnnn2-c2ccc(C(N)=O)cc2)cc1	-1%	26%	5	-3.0	-7	-2
41	O=C(c1ccccc1)N1N=C(c2ccco2)CC1c1cccs1 (centres undefined)	-24%	-1%[15.4 µM]	-1	-4.6	-3	-13
42	CN1CCN(NC(=O)c2cc(Br)ccc2Cl)CC1	3%	-1%	9	-1.9	2	-7
43	COc1ccc(CN(C)C(=O)Cn2ccsc2=N)cc1OC	16%	-36%[inhibitor]	-1	-5.3	-21	-5
44	COc1ccc(OC)c(/C=C/C(=O)OCC(=O)NCc2ccccc2)c1	-8%	?	2	1.4	-3	-9
45	c1ccc(-c2csc(Nc3ccccn3)n2)cc1	-15%	-20%	-3	0.9	-14	-8
46	CC(C)(C)c1cc(N2CCOCC2)n2ncc(-c3ccccc3)c2n1	-1%	-2%	12	5.9	7	-5
47	COc1ccc(C(=O)O)cc1S(=O)(=O)Nc1ccc(C)cc1	4%	-18%	3	5.7	nt	-6
48	O=C(NCc1cccnc1)c1ccc(NC(=O)c2ccco2)cc1	-2%	-1%	7	0.8	-1	-14
49	COc1cc(C(=O)N[C@H](C(=O)NC2CCCCCC2)C(C)C)cc(OC)c1OC	15%	1%	3	-2.2	5	-10
50	O=C(Cc1ccccc1)NC1CCS(=O)(=O)C1 (centres undefined)	7%	-7%	-5	-1.2	1	12
51	O=C(NCc1ccco1)c1ccc(Cl)nc1	12%	?	4	-1.7	1	2
52	Cc1cc(C)cc(NC(=O)CN(c2ccc(F)cc2)S(C)(=O)=O)c1	8%	8%[15.4 µM]	-1	-0.6	nt	-9
53	C/[N+]([O-])=C1\Cc2ccccc2C1=O	-11%	2%	1	-3.6	6	15
54	O=C(O)c1cc(=O)n(Cc2ccccc2)c(=O)[nH]1	8%	-1%[15.4 µM]	-1	-0.1	3	-8
55	Cc1cccnc1NC(=O)c1ccc2c(c1)OCCO2	5%	-7%[15.4 µM]	-3	1.2	-21	-13
56	CCOC(=O)c1cc(C(=O)NNC(=O)c2cccc([N+](=O)[O-])c2)c(C)nc1C	4%	5%[15.4 µM]	-6	-2.9	11	-6
57	COc1cc(-c2nc(Cc3c(F)cccc3Cl)no2)cc(OC)c1OC	8%	?	0	-3.0	46	-7
58	O=C(Nc1ccc2ccccc2c1)/C(=C/c1cccc(Br)c1)NC(=O)c1ccco1	-5%	-2%[15.4 µM]	-6	3.8	-3	-9
59	O=C1CN(C(=O)/C=C/c2cccc(Cl)c2)c2ccccc2N1	-3%	11%[15.4 µM]	-7	-0.1	-3	0
60	O=C(/C=C/c1cccc([N+](=O)[O-])c1)NCc1ccccc1	7%	-4%[15.4 µM]	-4	-1.2	0	-10
61	O=C(NCC(c1ccco1)N1CCCCC1)c1cccc(S(=O)(=O)Nc2ccccc2Cl)c1 (centres undefined)	-9%	1%	12	-0.1	-5	-20
62	CCS(=O)(=O)N1CCN(c2ccnc3cc(Cl)ccc23)CC1	-11%	4%[15.4 µM]	-2	-3.4	0	-5
63	CCCCNC(=O)C1CCN(Cc2ccccn2)CC1	1%	-9%	-7	1.0	-9	6
64	CC(=O)Nc1cccc2c1C(=O)N(c1ccccc1C)C2=O	6%	?	17	-5.2	-2	-1
65	CCn1c(SCC(=O)NC(C)C)nnc1-c1cccs1	1%	-19%	8	-0.7	0	2
66	CC(C)CCn1c(Oc2ccc(Cl)cc2)nc2c1c(=O)n(C)c(=O)n2C	4%	0%	5	-2.3	2	25
67	CCCCCCN1C[C@@H](n2cc(-c3ccc(F)cc3)nn2)[C@H](O)C[C@@H]1c1ccccc1	nt	-24%	0	-11	-6	-5
68	COC(=O)c1ccccc1NC(=O)N1CSC[C@H]1C(=O)OC	-5%[15.4 µM]	-25%	6	-4.0	6	-11
69	CCN1CCN(C/C(C)=C/c2ccccc2)CC1	0%	-5%	5	0.6	8	2
70	O=C(NCC1CCCO1)C1CC1(c1ccccc1)c1ccccc1 (centres undefined)	2%	?	-4	-6.5	nt	-3
71	COCCn1c(C)cc(/C=C2/NC(=O)N(c3ccc(Cl)cc3)C2=O)c1C	12%	22%[15.4 µM]	7	-3.7	-7	26
72	Cc1ccc(NC(=O)c2ccc3c(c2)CCN3S(C)(=O)=O)cc1	nt	?	-1	-1.3	0	-11
73	CCOC(=O)c1ccc(NC(=O)c2cc(=O)[nH]c3ccccc23)cc1	-3%	-19%	-4	-1.5	nt	-3
74	COc1ccccc1NC(=O)CSc1nnc(CC(=O)Nc2cccc(C(F)(F)F)c2)n1C	-8%	-16%	2	0.7	2	2
75	Cc1c(Cl)cccc1N=Cc1ccc([N+](=O)[O-])s1	21%	-1%	-67*	-0.1	?	-13
76	CSc1ccc(/C=N/NC(=O)C[n+]2ccccc2)cc1	4%	20µM*	-1	-3.5	0	-7
